SARS PLP yeast: inhibitors of SARS-CoV papain-like protease in yeast. S. cerevisiae expressing SARS-CoV PLpro, growth rescue; control for the full effect not named in the record. Potency, µM (highest dose often 32.9 µM), for the others: at the highest dose activity, positive = growth rescue. hit rate 0.19% among 330,000. AID 485353; also: 0% is about no effect; nearly all actives have a fitted effect of over 55% in size; growth read by luminescence after 48 h
Marburg entry inh: inhibitors of Marburg virus binding or cell entry; Potency, µM (doses to about 37.8 µM), inactives show at the top dose activity change, negative = inhibition, actives largely listed as inhibitors; Marburg virus pseudotyped entry inhibition, cell reporter; control for the full effect not named in the record; about a third of the inactives were read at about 46 µM; hit rate 1.8% among 300,000; active = well fitted inhibition curve with a large enough effect; inconclusive = small, poorly fitted or top-dose-only effect, or effect the other way; inactive = flat fitted curve, though single readings scatter; tested in HEK293 cells; about a fifth of its hits are not listed in these tables; also: % is scaled to controls: 0 for no effect and ±100 for the full control effect; luciferase read-out
NS1 function inh: influenza NS1 inhibition | S. cerevisiae slowed by influenza A NS1, growth recovery by OD600 | hit rate 0.4% among 270,000 | Potency, µM (top dose mostly 46.1 µM), for the others: top-dose activity, positive = more growth; also: actives are rising curves; nearly all actives have a fitted effect of over 50% in size
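S. cerevisiae expressing influenza A NS1, grown in glucose, washed, then diluted 1:100 into pH 6.0 -URA galactose medium with 23 nl compound. Growth recovery read as OD600; NS1-free strain serves as control.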
RE007 growth inh: less growth of the S. pombe RE007 Vpr strain; S. pombe RE007 Vpr strain, BacTiter-Glo ATP luminescence, 24 h; control for the full effect not named in the record; hit rate 0.21% among 360,000; Potency, µM (doses to about 92.2 µM), without a hit: at the highest dose activity change, negative = less growth; active = well fitted falling curve with a large enough effect; inconclusive = small, poorly fitted or top-dose-only effect; inactive = no such curve, though single readings can be large or run the other way;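 also: % is scaled to controls: 0 for no effect and ±100 for the full control effect; nearly all actives have a fitted effect of over 50% in size; the assay follows cell death caused by Vpr and the record does not say whether a fall means rescue or toxicity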
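Fission yeast RE007 carrying one integrated HIV-1 vpr copy, seeded at OD 0.01 in PMG+AL medium with 23 nL pinned compound. Grown 24 h at 30 degrees; viability read by BacTiter-Glo luminescence after 5 min.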
Cruzain inh noDet: blocks cruzain activity in detergent-free assay; purified cruzain, Z-FR-AMC fluorescence, no detergent; Potency, µM, for inactives: max response, negative = inhibition, usual class: inhibitors; hit rate 2.3% among 200,000; AID 1476; active = well fitted curve in the direction sought with a large enough effect; inconclusive = small, poorly fitted or top-dose-only effect, or another doubt; inactive = no such curve, though single readings can be large; an effect the other way counts as inactive or inconclusive;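 also: plate controls were enzyme without inhibitor for no effect and buffer without enzyme for full effect; nearly all actives have a fitted effect of over 40% in size; top concentration of the series not given in the record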
Target sequence (P25779 123-467 limits assumed): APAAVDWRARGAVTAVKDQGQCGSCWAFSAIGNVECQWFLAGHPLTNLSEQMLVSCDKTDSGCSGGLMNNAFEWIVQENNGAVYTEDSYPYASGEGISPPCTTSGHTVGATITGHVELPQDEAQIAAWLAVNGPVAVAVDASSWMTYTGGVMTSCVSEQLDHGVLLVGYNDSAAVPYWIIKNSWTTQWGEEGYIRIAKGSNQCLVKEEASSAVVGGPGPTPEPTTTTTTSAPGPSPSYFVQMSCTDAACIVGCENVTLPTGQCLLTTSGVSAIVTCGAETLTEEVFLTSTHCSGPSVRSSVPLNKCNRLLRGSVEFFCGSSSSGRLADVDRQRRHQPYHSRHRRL
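Detergent-free condition (0.00005% Triton X-100) in acetate buffer pH 5.5 with DTT. 1.5 nM enzyme and compound were pre-mixed 15 min, then 2 uM Z-FR-AMC substrate added; reaction progress from fluorescence change between first and third reads (60 s).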
LASV entry inh: blocks Lassa virus binding to or entry into cells; Lassa virus pseudotype entry inhibition, cell reporter; control for the full effect not named in the record; Potency, µM (top dose mostly 37.9 µM), for inactives: top-dose activity change, negative = inhibition, actives largely listed as inhibitors; hit rate 1.2% among 300,000; active means well fitted inhibition curve with a large enough effect; inconclusive means small, poorly fitted or top-dose-only effect, or effect the other way; inactive means flat fitted curve, though single readings scatter; tested in HEK293 cells; also: % is scaled to controls: 0 for no effect and ±100 for the full control effect; nearly all actives have a fitted effect of over 50% in size; luciferase read-out
Cruzain Triton: cruzain (T. cruzi) inhibition with detergent. Potency, µM, without a hit: max response, negative = inhibition, hits mostly inhibitors. purified cruzain, Z-FR-AMC fluorescence, 0.01% Triton. AID 1478. P25779. hit rate 0.43% among 200,000; active = well fitted curve in the direction sought with a large enough effect; inconclusive = small, poorly fitted or top-dose-only effect, or another doubt; inactive = no such curve, though single readings can be large; an effect the other way counts as inactive or inconclusive;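 also: plate controls were neutral wells for no effect and buffer without enzyme for full effect; nearly all actives have a fitted effect of over 40% in size; top concentration of the series not given in the record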
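Detergent-containing arm of a paired screen for aggregation-based inhibition: 0.01% Triton X-100 present. Cruzain at 1.5 nM cleaved 2 uM Z-FR-AMC at pH 5.5 with 5 mM DTT; AMC fluorescence gain over 60 s measured activity.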
2A StopGo: lowers the luciferase signal of an FMDV 2A StopGo reporter; human cells with a luciferase reporter of 2A StopGo recoding; control for the full effect not named in the record; Potency, µM (series often up to 57.9 µM), for inactives: at the highest dose signal change, negative = less light; hit rate 1.2% among 410,000; active = well fitted falling curve with a large enough effect; inconclusive = small, poorly fitted or top-dose-only effect; inactive = no such curve, though single readings can be large or run the other way; tested in HEK293T cells; also: % is scaled to controls: 0 for no effect and ±100 for the full control effect; nearly all actives have a fitted effect of over 45% in size; luciferase light after 4 h
* = called active by the depositor; ? = inconclusive; · = no result given; [ ] = dose if it differs, or a comment. Unless noted, calls follow the shape of the dose curve; as a rule, active means well fitted rising curve with a large enough effect; inconclusive means small, poorly fitted or top-dose-only effect; inactive means no such curve, though single readings can be large or run the other way. Potency is read from the fitted curve at half-maximal effect.

SMILES	SARS PLP yeast	Marburg entry inh	NS1 function inh	RE007 growth inh	Cruzain inh noDet	LASV entry inh	Cruzain Triton	2A StopGo
CCN(CC)CCN(C(=O)CCS(=O)(=O)c1ccccc1)c1nc2c(C)cc(C)cc2s1	-7%	?	-41%	-15%	·	?	·	-4%
CN(C(=O)COC(=O)Cc1c(F)cccc1Cl)c1c(N)n(Cc2ccccc2)c(=O)[nH]c1=O	4%	15%	·	14%	·	0%	·	0%
COc1ccc(OC)c(NC(=O)[C@@]2(CC(=O)O)CC(/C=C/c3ccccc3)=NO2)c1	2%	28%[46.1 µM]	8%	-13%	·	26%[46.1 µM]	·	9%
S=c1[nH]c2ccc(Cc3ccc4[nH]c(=S)[nH]c4c3)cc2[nH]1	?	?	20%	14%	·	-20%[46.1 µM]	·	-6%
O=[N+]([O-])c1ccc(Cn2cc(-c3cccc(C(F)(F)F)c3)nn2)cc1	-14%	·	-29%	2%	·	·	·	-9%
Cc1ccc(CNc2ncc(-c3ccc4c(c3)OCO4)n2C)cc1	-1%	-8%	-3%	-15%	11%	-17%	1.8%	4%
C=CCOc1cccc(C2/C(=C(\O)c3ccc(F)cc3)C(=O)C(=O)N2CCN(C)C)c1 (stereo unspecified)	-2%	-28%[46.1 µM]	-6%	-5%	1%	22%	-0.6%	23%
COc1ccc(C2CC(=O)N(C)c3ccccc3S2)cc1OC (stereo unspecified)	-2%	29%[46.1 µM]	·	-13%	·	18%[46.1 µM]	·	3%
CCC(C(=O)NCc1ccco1)n1nc(C)n2c(cc3occc32)c1=O (stereo unspecified)	-4%	1%[46.1 µM]	-2%	9%	·	-7%[46.1 µM]	·	-2%
CCC(c1nnnn1CCc1ccccc1)N(Cc1ccco1)Cc1cc2cccc(C)c2[nH]c1=O (stereo unspecified)	0%	?	2%	-3%	-9%	-12%	-1.7%	-3%
CCCC(NC(=O)CCl)c1ccccc1 (stereo unspecified)	26%	?	12%	9%	-2%	-15%	4.9%	?
O=C(CCN1C(=O)C2C3C=CC(C3)C2C1=O)Nc1ccccn1 (stereo unspecified)	·	13%	1%	14%	3%	2%	-1.8%	13%
CCN(CC)c1ccc(NC(=S)NC(=O)c2cccs2)cc1	1%	·	-8%	?	·	·	·	6%
O=C(c1ccc(F)cc1)N1CCC(O)(c2cccnc2)CC1	2%	-17%[46.1 µM]	5%	14%	4%	7%	4.4%	-26%
CC1c2ccccc2N(S(=O)(=O)c2ccccc2)C1C (stereo unspecified)	·	3.5µM*	·	11%	·	?	·	-16%
CCC(CC)C(=O)NCCCCc1ccccc1	9%	3%	-13%	6%	10%	-5%	0.1%	-17%
CC(C)[C@H]1COC(NC2=N[C@@H](C(C)C)CO2)=N1	10%	·	7%	-27%	·	·	·	-3%
CN(C)/C=C/C(=O)c1cnc(-c2ccccn2)s1	-5%	-15%[46.1 µM]	·	2%	·	-5%	·	63%[activator]
Cc1cc2nc(-c3cc(N4CCOCC4)ccc3[N+](=O)[O-])ccn2n1	-1%	6%[46.1 µM]	·	-14%	·	9%	·	-5%
Cc1ccc(O)c(C2=Nc3ccccc3N=C(c3cccc([N+](=O)[O-])c3)C2)c1	-3%	-5%	·	3%	·	3%	·	21%
Cc1ccccc1OCCOc1ccccc1C=C(C#N)C#N	-25%	-18%	-23%	·	0%	?	-12%	·
CC1=Nc2cc(C(=O)NCc3ccc(C)cc3)ccc2Sc2ccc(Cl)cc21	·	·	·	·	?	-23%[46.1 µM]	-4.3%	6%
Cn1cccc1C(=O)C(=O)Nc1ccc(F)c(F)c1	2%	?	·	-9%	·	?	·	16%
COc1ccc(NS(=O)(=O)c2ccc(C)c(C(=O)NCC(c3ccco3)N3CCCCC3)c2)cc1 (stereo unspecified)	-3%	?	·	-9%	·	16%	·	10%
COc1ccc(CCNC(=O)CN(c2ccccc2)S(C)(=O)=O)cc1	0%	12%[46.1 µM]	-2%	0%	·	2%	·	-2%

9 consecutive entries out of the list so far, quoted:
SMILES	SARS PLP yeast	Marburg entry inh	NS1 function inh	RE007 growth inh	Cruzain inh noDet	LASV entry inh	Cruzain Triton	2A StopGo
CCN(CC)CCN(C(=O)CCS(=O)(=O)c1ccccc1)c1nc2c(C)cc(C)cc2s1	-7%	?	-41%	-15%	·	?	·	-4%
CN(C(=O)COC(=O)Cc1c(F)cccc1Cl)c1c(N)n(Cc2ccccc2)c(=O)[nH]c1=O	4%	15%	·	14%	·	0%	·	0%
COc1ccc(OC)c(NC(=O)[C@@]2(CC(=O)O)CC(/C=C/c3ccccc3)=NO2)c1	2%	28%[46.1 µM]	8%	-13%	·	26%[46.1 µM]	·	9%
S=c1[nH]c2ccc(Cc3ccc4[nH]c(=S)[nH]c4c3)cc2[nH]1	?	?	20%	14%	·	-20%[46.1 µM]	·	-6%
O=[N+]([O-])c1ccc(Cn2cc(-c3cccc(C(F)(F)F)c3)nn2)cc1	-14%	·	-29%	2%	·	·	·	-9%
Cc1ccc(CNc2ncc(-c3ccc4c(c3)OCO4)n2C)cc1	-1%	-8%	-3%	-15%	11%	-17%	1.8%	4%
C=CCOc1cccc(C2/C(=C(\O)c3ccc(F)cc3)C(=O)C(=O)N2CCN(C)C)c1 (stereo unspecified)	-2%	-28%[46.1 µM]	-6%	-5%	1%	22%	-0.6%	23%
COc1ccc(C2CC(=O)N(C)c3ccccc3S2)cc1OC (stereo unspecified)	-2%	29%[46.1 µM]	·	-13%	·	18%[46.1 µM]	·	3%
CCC(C(=O)NCc1ccco1)n1nc(C)n2c(cc3occc32)c1=O (stereo unspecified)	-4%	1%[46.1 µM]	-2%	9%	·	-7%[46.1 µM]	·	-2%

Back to the main list; the two compounds before the break are reprinted first.
SMILES	SARS PLP yeast	Marburg entry inh	NS1 function inh	RE007 growth inh	Cruzain inh noDet	LASV entry inh	Cruzain Triton	2A StopGo
COc1ccc(NS(=O)(=O)c2ccc(C)c(C(=O)NCC(c3ccco3)N3CCCCC3)c2)cc1 (stereo unspecified)	-3%	?	·	-9%	·	16%	·	10%
COc1ccc(CCNC(=O)CN(c2ccccc2)S(C)(=O)=O)cc1	0%	12%[46.1 µM]	-2%	0%	·	2%	·	-2%
CCn1c(O)c(/C=C2\C=Nc3ccccc32)sc1=Nc1ccccc1	6%	-12%	-2%	-5%	1%	-6%	1.8%	19%
CC(C)C(NC(=O)c1ccco1)C(=O)NCc1ccc(C(=O)O)cc1 (stereo unspecified)	0%	-2%[46.1 µM]	-40%	10%	·	6%	·	0%
COc1cccc(CC2(CO)CCN(Cc3cnc(-c4cccc(C)c4)nc3)CC2)c1	0%	?	-3%	-24%	·	?	·	-19%
Cc1ccc(C(=O)Nc2ccc3cn[nH]c3c2)cc1S(=O)(=O)N1CCOCC1	1%	·	3%	12%	·	·	·	16%
O=C(Nc1nc(-c2ccco2)c(-c2ccco2)s1)c1ccco1	-49%	?	·	2%	·	10%	·	0%
Nc1cc(=O)[nH]c(SCC(=O)Nc2ccc(S(=O)(=O)N3CCCCC3)cc2)n1	0%	-1%[46.1 µM]	10%	-9%	·	-6%	·	0%
O=C(Nn1c(C2CC2)nc2ccccc2c1=O)c1ccco1	19%	-12%	-2%	6%	-6%	?	-2.2%	-21%
Cc1cccc(N2C(=O)SC(SC(=Nc3ccccc3)Nc3ccccc3)C2=O)c1 (stereo unspecified)	?	?	-9%	-3%	?	?	-11%	15%
CC(C)(C)CN1CCNC(=O)C1CC(=O)NCc1cccc(-n2cccn2)c1 (stereo unspecified)	0%	-5%[46.1 µM]	-1%	32%	·	-9%[46.1 µM]	·	-1%
COc1cccc(CNC(=O)CCc2c(C)nc3c(c2C)c(=O)n(C)c(=O)n3C)c1	·	13%[46.1 µM]	·	·	-6%	2%[46.1 µM]	-1.2%	9%
Cc1noc(C)c1COC(=O)Cn1c(C)nc2ccccc21	1%	7%	-9%	9%	-6%	7%	0.9%	-10%
COc1ccc(OC)c(CCNC(=O)CCc2nnc3ccc(N4CCCC4)nn23)c1	3%	·	-3%	-1%	·	·	·	-11%
O=S1(=O)CCC(NC(=S)SCCOc2ccccc2)C1 (stereo unspecified)	1%	·	-4%	7%	·	·	·	14µM*
Cc1ccc(S(=O)(=O)NCC(c2ccco2)N2CCc3ccccc32)cc1 (stereo unspecified)	-10%	?	·	3%	·	-8%	·	26%
Cc1cccc(CC(=O)NC2CC(=O)N(c3ccccc3)C2)c1 (stereo unspecified)	·	·	·	·	1%	1%[46.1 µM]	1.0%	-14%
CSCC[C@@H](C(=O)O)N1Cc2ccccc2C1=O	-1%	·	-3%	1%	-11%	·	-11%	-9%
Cc1nn(S(=O)(=O)c2ccc(C(C)(C)C)cc2)c(C)c1S(=O)(=O)N1CCC(C)CC1	·	·	·	·	22%	-1%[46.1 µM]	-0.1%	24%
CC(C)OC(=O)n1c(=S)oc2ccccc21	-35%	?	-115%	6%	-16%	-21%	2.0%	·
CC(C)CC(NC(=O)CC12CC3CC(CC(C3)C1)C2)C(=O)NC1=NCCS1 (stereo unspecified)	-1%	17%[14.2 µM]	-1%	-12%	·	1%	·	58%[activator]
CN(C)NC(=S)Nc1cccc(C(F)(F)F)c1	1%	19%[46.1 µM]	0%	4%	·	3%	·	-19%
CCOc1ccc(NC(=O)NNC(=O)C2CCC(C(C)(C)C)CC2)cc1 (stereo unspecified)	0%	·	5%	14%	·	·	·	-12%
COc1ccccc1N1CCN(C(=O)Cn2ncc3ccsc3c2=O)CC1	·	13%[46.1 µM]	·	·	17%	4%[46.1 µM]	3.1%	-17%
Cc1ccc(-c2nnn(CC(=O)N(CCCO)C(C(=O)NC3CCCC3)c3ccc(Cl)cc3)n2)o1 (stereo unspecified)	-2%	-7%[46.1 µM]	5%	2%	·	?	·	0%
COc1ccc2sc(C)[n+](C)c2c1	1%	-1%[46.1 µM]	·	3%	·	4%[46.1 µM]	·	-2%
